# Bioassay records deposited in PubChem by Broad Institute.
# UUG fidelity: modulators of yeast start codon fidelity, primary screen, whole organism, S. cerevisiae, single point, plate reader | S. cerevisiae UUG-firefly luciferase reporter, luminescence/redox ratio | activity score, % at 18.7 µM | 350,000 compounds, 0.13% hits;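 active = replicate mean at a twofold rise or more, about +100% in these data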;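 note: firefly luciferase made from a UUG start codon reports start codon fidelity; reporter light over untreated wells divided by growth signal over untreated wells; some hits fall short of that in this replicate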
# HIV Env fusion: inhibitors of HIV-1 Env-driven cell-cell fusion, primary screen, HeLa-JRFL effector, CEM21 target cells, luciferase | 360,000 compounds, 1.1% hits | inhibition, % at 12.3 µM;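 active = mean replicate inhibition score of at least 50 and every replicate individually at or above 50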;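 note: 0% = plate neutral controls and 100% = maraviroc near 300 nM; one replicate is shown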
# The depositor's hits bear a star; [ ] = another dose, or the depositor's remark. The list is partial; the hit share may differ from the screen's.
structure,HIV Env fusion,UUG fidelity
Cc1noc(C)c1S(=O)(=O)Nc1ccc2c(c1)CC(=O)N([C@@H](C)CO)C[C@H](C)[C@H](CN(C)CC1CCCCC1)O2,2[16.7 µM],7
C[C@H](CO)N1C[C@H](C)[C@@H](CN(C)S(C)(=O)=O)Oc2c(NC(=O)c3ccc(-c4nccs4)cc3)cccc2C1=O,8[16.7 µM],-2
C[C@H]1CN([C@@H](C)CO)C(=O)c2cc(C#Cc3ccccc3)cnc2O[C@@H]1CN(C)C(=O)CN(C)C,15[16.7 µM],4
C[C@H](CO)N1C[C@H](C)[C@@H](CN(C)Cc2ccc(Oc3ccccc3)cc2)Oc2ccc(NS(=O)(=O)c3ccc(F)cc3)cc2C1=O,9[16.7 µM],10
C[C@@H]1CN([C@H](C)CO)C(=O)Cc2cc(NC(=O)CCCN(C)C)ccc2O[C@@H]1CN(C)CC1CCCCC1,-16[16.7 µM],-5
C[C@H](CO)N1C[C@H](C)[C@H](CN(C)CC2CCCCC2)OCc2cnnn2CCCC1=O,9[16.7 µM],-6
CCC(=O)N(C)C[C@H]1Oc2cc(-c3cncnc3)ccc2S(=O)(=O)N([C@@H](C)CO)C[C@@H]1C,-4[16.7 µM],-1
C[C@@H]1CN([C@H](C)CO)S(=O)(=O)c2ccc(/C=C/c3ccccc3)cc2O[C@H]1CN(C)C(=O)Nc1ccc(F)cc1,13[16.7 µM],-10
C[C@H](O)C#Cc1cnc2c(c1)C(=O)N([C@@H](C)CO)C[C@H](C)[C@@H](CN(C)C(=O)CN1CCOCC1)O2,2[16.7 µM],7
CC(C)NC(=O)Nc1ccc2c(c1)C(=O)N([C@@H](C)CO)C[C@H](C)[C@@H](CN(C)S(=O)(=O)c1ccccc1)OCCCC[C@H](C)O2,-41[16.7 µM],9
Cc1ccc(S(=O)(=O)N[C@@H]2CC[C@H](CC(=O)O)O[C@H]2CO)cc1,7[16.7 µM],-14
C[C@@H]1CN([C@H](C)CO)C(=O)c2cc(N(C)C)ccc2O[C@@H]1CN(C)C(=O)Nc1ccc(F)cc1,-5[16.7 µM],-8
CO[C@@H]1CN(C)C(=O)c2cc(NS(=O)(=O)CC(F)(F)F)ccc2OC[C@H](C)NC[C@@H]1C,-7[16.7 µM],-15
CN(C)C(=O)C[C@H]1CC[C@H]2[C@H](COc3ccc(NC(=O)C4CCOCC4)cc3C(=O)N2C)O1,-14[16.7 µM],0
COc1ccc(S(=O)(=O)Nc2cccc3c2O[C@@H](CN(C)Cc2ccc(-c4ccccc4)cc2)[C@@H](C)CN([C@H](C)CO)C3=O)cc1,-42[16.7 µM],6
COc1ccc(S(=O)(=O)N[C@H]2C=C[C@@H](CC(=O)NCCc3ccccc3)O[C@H]2CO)cc1,-6[16.7 µM],-4
C[C@@H]1CCCCO[C@H](CN(C)C(=O)Nc2ccc(C(F)(F)F)cc2)[C@@H](C)CN([C@H](C)CO)C(=O)c2cc(NS(=O)(=O)c3cccs3)ccc2O1,-7[16.7 µM],-12
C[C@H](CO)N1C[C@H](C)[C@H](CN(C)CC2CCCC2)Oc2ncc(-c3ccc(F)cc3)cc2C1=O,9[16.7 µM],11
COc1ccc(S(=O)(=O)N(C)C[C@H]2OCCCC[C@@H](C)Oc3ccc(NC(=O)Nc4ccc(C(F)(F)F)cc4)cc3C(=O)N([C@@H](C)CO)C[C@H]2C)cc1,5[16.7 µM],-10
C[C@@H]1CN([C@H](C)CO)C(=O)c2cc(NC(=O)c3ccncc3)ccc2O[C@H]1CN(C)S(=O)(=O)c1ccc(F)cc1,-7[16.7 µM],1

# Copied from the list.
# Entry of `Cc1ccc(S(=O)(=O)N[C@@H]2CC[C@H](CC(=O)O)O[C@H]2CO)cc1` in HIV Env fusion: 7[16.7 µM]
# Entry of `C[C@@H]1CCCCO[C@H](CN(C)C(=O)Nc2ccc(C(F)(F)F)cc2)[C@@H](C)CN([C@H](C)CO)C(=O)c2cc(NS(=O)(=O)c3cccs3)ccc2O1` in HIV Env fusion: -7[16.7 µM]
# Entry of `C[C@@H]1CN([C@H](C)CO)S(=O)(=O)c2ccc(/C=C/c3ccccc3)cc2O[C@H]1CN(C)C(=O)Nc1ccc(F)cc1` in UUG fidelity: -10

# Sorted by length of the SMILES (lowest first): 3 of the compounds above
structure,HIV Env fusion,UUG fidelity
C[C@H](CO)N1C[C@H](C)[C@H](CN(C)CC2CCCCC2)OCc2cnnn2CCCC1=O,9[16.7 µM],-6
COc1ccc(S(=O)(=O)Nc2cccc3c2O[C@@H](CN(C)Cc2ccc(-c4ccccc4)cc2)[C@@H](C)CN([C@H](C)CO)C3=O)cc1,-42[16.7 µM],6
C[C@@H]1CCCCO[C@H](CN(C)C(=O)Nc2ccc(C(F)(F)F)cc2)[C@@H](C)CN([C@H](C)CO)C(=O)c2cc(NS(=O)(=O)c3cccs3)ccc2O1,-7[16.7 µM],-12

# (list continues)
structure,HIV Env fusion,UUG fidelity
C[C@H](O)C#Cc1ccc2c(c1)O[C@@H](CN(C)C(=O)c1ccccc1)[C@@H](C)CN([C@@H](C)CO)S2(=O)=O,6[16.7 µM],0
C[C@H]1CN([C@@H](C)CO)C(=O)c2cccc(NC(=O)Nc3ccc(C(F)(F)F)cc3)c2O[C@H]1CN(C)C(=O)Nc1ccc(C(F)(F)F)cc1,-11[16.7 µM],0
Cc1ccccc1S(=O)(=O)N1[C@H](C#N)[C@H](c2ccc(C#CC3CCCCC3)cc2)[C@H]1CO,-24[16.7 µM],-27
COC(=O)C[C@@H]1C[C@@H]2c3cc(NC(=O)C4CCC4)ccc3O[C@@H]2[C@@H](CO)O1,24[16.7 µM],3
Cc1noc(C)c1NC(=O)N[C@@H]1CC[C@H](CC(=O)N2CCCCC2)O[C@H]1CO,-24[16.7 µM],-12
Cc1ccc(S(=O)(=O)Nc2ccc3c(c2)C(=O)N([C@@H](C)CO)C[C@@H](C)[C@H](CN(C)C(=O)CCCN(C)C)OCCCC[C@@H](C)O3)cc1,7[16.7 µM],15
C[C@@H]1CN([C@H](C)CO)C(=O)Cc2cc(NC(=O)c3ccncc3)ccc2O[C@@H]1CN(C)S(=O)(=O)c1cn(C)cn1,-32[16.7 µM],-5
COc1cccc(-c2cnc3c(c2)C(=O)N([C@H](C)CO)C[C@H](C)[C@H](CN(C)Cc2ccc4c(c2)OCO4)O3)c1,2[16.7 µM],5
C[C@H](CO)N1C[C@H](C)[C@@H](CN(C)S(=O)(=O)c2ccc(F)cc2)Oc2c(NC(=O)C3CC3)cccc2C1=O,-24[16.7 µM],4
CN(C)CC(=O)Nc1ccc2c(c1)[C@H]1C[C@@H](CC(=O)NCc3ccncc3)O[C@H](CO)[C@H]1O2,1[16.7 µM],-10
CC(C)CC#Cc1cnc2c(c1)C(=O)N([C@@H](C)CO)C[C@@H](C)[C@@H](CN(C)Cc1cncnc1)O2,19[16.7 µM],-2
CCCC#Cc1ccc2c(c1)O[C@H](CN(C)C(=O)c1ccccn1)[C@@H](C)CN([C@@H](C)CO)S2(=O)=O,12[16.7 µM],24
C/C=C/c1cnc2c(c1)C(=O)N([C@@H](C)CO)C[C@@H](C)[C@H](CN(C)C(=O)CN1CCOCC1)O2,-7[16.7 µM],-8
O=C(N[C@@H]1C=C[C@H](CC(=O)N2CCCCC2)O[C@H]1CO)c1ccccn1,-6[16.7 µM],0
C[C@@H]1CCCCO[C@@H](CN(C)CC2CCCCC2)[C@@H](C)CN([C@@H](C)CO)C(=O)c2cc(NS(=O)(=O)c3cccs3)ccc2O1,-34[16.7 µM],6
C[C@H]1CN([C@@H](C)CO)S(=O)(=O)c2ccc(C3=CCCC3)cc2O[C@H]1CN(C)Cc1ccccc1,57*[16.7 µM],-13
O=C(C[C@H]1CC[C@@H](NC(=O)C2CC2)[C@H](CO)O1)Nc1nccs1,24[16.7 µM],-15
O=C(C[C@@H]1CC[C@H](NC(=O)Nc2cccc(F)c2)[C@@H](CO)O1)NCC1CCCCC1,-4[16.7 µM],-10
CCNC(=O)Nc1ccc2c(c1)C(=O)N(C)[C@@H]1CC[C@H](CC(=O)Nc3ccccc3)O[C@H]1CO2,-6[16.7 µM],4
O=C(C[C@H]1C=C[C@@H](NC(=O)C2CCC2)[C@@H](CO)O1)NCc1ccncc1,4[16.7 µM],0
COc1cccc(S(=O)(=O)Nc2ccc3c(c2)[C@@H]2C[C@@H](CC(=O)O)O[C@H](CO)[C@@H]2O3)c1,28[16.7 µM],-11
COc1ccccc1C(=O)Nc1ccc2c(c1)OC[C@@H](C)N(C)C[C@@H](C)[C@@H](OC)CN(C)C2=O,6[16.7 µM],5
CC(C)NC(=O)Nc1ccc2c(c1)CC(=O)N([C@@H](C)CO)C[C@H](C)[C@H](CN(C)C(=O)Nc1ccc3c(c1)OCO3)O2,-1[16.7 µM],6
O=C(NCC[C@H]1CC[C@@H](NS(=O)(=O)c2cccc(F)c2)[C@@H](CO)O1)Nc1cc(F)ccc1F,30[16.7 µM],3
CC(C)CC#Cc1ccc2c(c1)O[C@@H](CN(C)C(=O)Nc1ccccc1)[C@@H](C)CN([C@@H](C)CO)S2(=O)=O,24[16.7 µM],-3
COc1ccc(NC(=O)Nc2cccc3c2O[C@H](CN(C)S(=O)(=O)c2ccc(C)cc2)[C@@H](C)CN([C@@H](C)CO)C3=O)cc1,32[16.7 µM],7
C[C@@H]1CN([C@H](C)CO)S(=O)(=O)c2ccc(C3=CCCC3)cc2O[C@H]1CN(C)Cc1cccnc1,17[16.7 µM],0
CC(=O)N(C)C[C@H]1Oc2cc(C#Cc3ccccn3)ccc2S(=O)(=O)N([C@H](C)CO)C[C@H]1C,-16[16.7 µM],19
COc1ccc(NC(=O)Nc2cccc3c2O[C@@H](CN(C)C(=O)NC(C)C)[C@H](C)CN([C@@H](C)CO)C3=O)cc1,-7[16.7 µM],-5
CC(C)CC#Cc1cnc2c(c1)C(=O)N([C@H](C)CO)C[C@H](C)[C@@H](CN(C)Cc1ccc(C(=O)O)cc1)O2,-19[16.7 µM],1
C[C@H](CO)N1C[C@H](C)[C@H](CN(C)Cc2ccc3c(c2)OCO3)Oc2cc(C#CCN(C)C)ccc2S1(=O)=O,-2[16.7 µM],24
C[C@H](CO)N1C[C@H](C)[C@H](CN(C)S(=O)(=O)c2cn(C)cn2)Oc2ccc(NC(=O)Nc3ccc4c(c3)OCO4)cc2C1=O,-15[16.7 µM],-6
CN1C(=O)c2cc(NC(=O)C3CCCC3)ccc2OC[C@H]2O[C@@H](CC(=O)NCC3CC3)CC[C@@H]21,3[16.7 µM],9
N#C[C@H]1[C@@H](c2ccc(C3=CCCCC3)cc2)[C@H](CO)N1C(=O)CN1CCOCC1,-9[16.7 µM],12
O=S(=O)(N[C@H]1CC[C@@H](CCn2cc(C3CC3)nn2)O[C@@H]1CO)c1ccc(F)cc1,-12[16.7 µM],13
C[C@@H]1CN([C@@H](C)CO)C(=O)c2cc(NC(=O)c3ccncc3)ccc2O[C@@H](C)CCCCO[C@@H]1CN(C)C(=O)CCCN(C)C,1[16.7 µM],-1
O=C(Nc1ccc2c(c1)OCO2)N[C@@H]1CC[C@@H](CCNC(=O)C2CCCC2)O[C@H]1CO,3[16.7 µM],21
C[C@@H]1CN([C@@H](C)CO)C(=O)c2cccc(NC(=O)c3nc4ccccc4s3)c2O[C@H]1CN(C)CC1CC1,-1[16.7 µM],-7
C[C@@H]1CN([C@H](C)CO)C(=O)c2cc(NS(=O)(=O)c3ccc(F)cc3)ccc2O[C@@H](C)CCCCO[C@@H]1CN(C)C(=O)CCC(F)(F)F,-4[16.7 µM],6
O=C(C[C@@H]1C=C[C@@H](NC(=O)C2CC2)[C@@H](CO)O1)NCc1ccncc1,29[16.7 µM],-2
CCCc1cn(CC[C@H]2CC[C@@H](NC(=O)C3CCOCC3)[C@H](CO)O2)nn1,-9[16.7 µM],-13
O=C(C[C@@H]1C[C@H]2c3cc(NC(=O)Nc4ccc(C(F)(F)F)cc4)ccc3O[C@H]2[C@@H](CO)O1)NCCc1ccccc1,21[16.7 µM],-15
C[C@@H]1CN([C@@H](C)CO)C(=O)Cc2cc(NC(=O)Nc3cccc4ccccc34)ccc2O[C@H]1CN(C)Cc1ccc(Cl)c(Cl)c1,17[16.7 µM],-1
C[C@@H]1CN([C@H](C)CO)S(=O)(=O)c2ccc(C3=CCCCC3)cc2O[C@@H]1CN(C)Cc1cccnc1,-10[16.7 µM],-6
COc1ccccc1C#Cc1ccc2c(c1)O[C@H](CN(C)Cc1cncnc1)[C@@H](C)CN([C@H](C)CO)S2(=O)=O,2[16.7 µM],21
CO[C@@H]1CN(C)C(=O)c2ccc(NC(=O)C3CC3)cc2OC[C@H](C)N(C(=O)C2CCCCC2)C[C@@H]1C,-5[16.7 µM],16
CC(=O)N(C)C[C@H]1Oc2cc(C#CCC3CCCC3)ccc2S(=O)(=O)N([C@H](C)CO)C[C@@H]1C,-5[16.7 µM],2
C[C@H]1CN([C@@H](C)CO)C(=O)Cc2cc(NC(=O)Nc3cccc4ccccc34)ccc2O[C@H]1CN(C)S(=O)(=O)c1cccs1,45[16.7 µM],33
C[C@H]1CN([C@@H](C)CO)S(=O)(=O)c2ccc(-c3ccccc3)cc2O[C@@H]1CN(C)Cc1ccccc1C(=O)O,-2[16.7 µM],25
CNC[C@@H]1Oc2ccc(NC(=O)Cc3cn(C)c4ccccc34)cc2C(=O)N([C@H](C)CO)C[C@H]1C,-4[16.7 µM],13
C[C@@H]1CN([C@H](C)CO)C(=O)c2cc(/C=C/c3ccccc3)cnc2O[C@@H]1CN(C)S(=O)(=O)c1ccc(F)cc1,-1[16.7 µM],1
Cc1noc(C)c1S(=O)(=O)Nc1ccc2c(c1)C(=O)N([C@H](C)CO)C[C@H](C)[C@@H](CN(C)C(=O)Nc1ccc(F)cc1)OCCCC[C@H](C)O2,-112[16.7 µM],-23
